HIV TAR-Tat: HIV-1 TAR-Tat binding disruption; HIV-1 TAR RNA, Tat peptide displacement FRET; hits give high values; z-score (concentration not given with the values); AID 1259389; 100,000 compounds, 0.6% hits;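 also: score is relative to mean and SD of negative controls; some compounds called inactive have numbers as strong as hits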
CDC25B-CDK2 inh: human CDC25B-CDK2/CyclinA binding inhibition. P30305+P24941. HTRF CDC25B-CDK2/CyclinA binding, anti-His/anti-Flag; hits give high values. z-score (no concentration beside the values). 94,000 compounds, 0.72% hits;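 also: score is relative to mean and SD of negative controls; strong numbers were not always called active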
* hit, by the source's call; . = no result given; & = joins results of further samples.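 The calls were made as follows: active = z-score from 3 up in half or more of its runs; inactive = the rest.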

Below each compound: HIV TAR-Tat | CDC25B-CDK2 inh
> NC(=O)c1cc([N+](=O)[O-])cc([N+](=O)[O-])c1
→ 0.72 | .
> Cc1nccc2c1[nH]c1ccccc12
→ 19.1* | -1.22
> O=C1NC(=O)C(=Cc2ccncc2)C(=O)N1
→ . | 0.87
> NC(=NCCCC(NC(=O)OCc1ccccc1)C(=O)O)N[N+](=O)[O-] (configuration not stated)
→ . | -0.73
> O=c1c2ccccc2nc(/C=C/c2ccc([N+](=O)[O-])o2)n1-c1ccc(Br)cc1
→ -0.46 | -2.76
> Fc1ccc(CNCCc2c[nH]c3ccccc23)cc1F
→ -0.12 | 15.8*
> O=C(O)CC[N+](=O)[O-]
→ 1.15 | -0.25
> COc1ccccc1OCCCn1cc(C(=O)c2ccco2)c2ccccc21
→ 1.26 | 2.23
> Cc1nn(C2CCOC(C)(C)C2)c2c1C(c1ccc(OCc3ccccc3)cc1)SCC(=O)N2 (configuration not stated)
→ 1.78 | -1.44
> O=C(O)C(Cl)Cl
→ 3.08 | .
> COC1=C[C@@H]2[C@@H]3Cc4ccc(OC)c(O)c4[C@]2(CCN3C)CC1=O
→ 0.81 | .
> Cc1ccc2c(c1)Sc1ccc(C)cc1S2
→ . | -1.8
> Cc1nn(-c2ccccc2Cl)c2c1C(c1ccsc1)SCC(=O)N2 (configuration not stated)
→ -0.9 | -0.26
> COc1ccc(C(=O)OC2CC3CCC(C2)N3C)cc1OC (configuration not stated)
→ 2.16 | .
> CC12CCC(O)CC1CCC1C2[C@H](O)CC2(C)C(C3=CC(=O)OC3)CCC12O (some centres not stated)
→ 1.17 | .
> CC(C)Oc1ccc(C2N3CCCN23)cc1 (configuration not stated)
→ 0.68 | -1.26
> Cc1cc(C)nc(-n2nc(-c3ccccc3)c3c2NC(=O)CSC3c2ccc(N(C)C)cc2)n1 (configuration not stated)
→ 1.83 | -1.68
> Fc1cccc(C2NCc3ccccc3-n3cccc32)c1 (configuration not stated)
→ . | -0.94
> O=C(O)CNCP(=O)(O)O
→ -0.08 | .
> CCOc1ccc(C2SCC(=O)Nc3c2c(=O)[nH]n3C2CCCC2)cc1 (configuration not stated)
→ 0.34 | -2.34
> CC1CN=C(NCc2cccnc2)S1 (configuration not stated)
→ 1.3 | 0.47
> CCCCOC(=O)c1ccccc1C(=O)OCc1ccccc1
→ 0.8 | .
> CCCC12CN3CC(C)(CN(C1)C3(C)C)C2=O
→ . | -1.05
> ON=C1CC2CCCC(C1)N2Cc1ccccc1
→ . | -0.93
> Cc1nn(-c2ccc(F)cc2)c2c1C(c1ccc3c(c1)OCO3)SCC(=O)N2 (configuration not stated)
→ 0.18 | -1.9
> Oc1ccc(CC2CC3CCN2CC3)cc1O (configuration not stated)
→ . | -1.01
> O=C(O)[C@@H]1CCN1
→ . | 0.16
> CC(Cc1ccc(OCC(=O)O)cc1)NCC(O)c1cccc(Cl)c1 (configuration not stated)
→ . | -0.93
> C[N+]1(C)CCC(OC(=O)C(c2ccccc2)c2ccccc2)CC1
→ . | -1.43&-0.85
> NCC(=O)c1ccc(Br)cc1
→ . | -1.97
> COc1ccc2c(c1)[C@]13CCCC[C@H]1[C@H](C2)N(C)CC3
→ 1.8 | .
> Cc1ccc(C(CNC(=O)c2oc3ccccc3c2C)N2CCCC2)o1 (configuration not stated)
→ -0.03 | -2.22
> O=C(O)C(O)(c1ccccc1)C1CCCCC1 (configuration not stated)
→ 21 | -0.39
> CC(C)CC1C(=O)NC(=S)NC1=O
→ . | -0.64
> Cc1nn(-c2ccc(F)cc2)c2c1C(c1cccnc1)SCC(=O)N2 (configuration not stated)
→ 0.82 | -0.17
> Cn1c(CCCC(=O)O)nc2cc(N(CCCl)CCCl)ccc21
→ . | -0.81
> CO[C@@H]1C[C@H](O[C@H]2CC[C@]3(C)C4CC[C@]5(C)[C@@H](C6=CC(=O)OC6)[C@@H](OC(C)=O)C[C@]5(O)C4CC[C@@H]3C2)OC(C)[C@H]1O (some centres not stated)
→ 3.47 | .
> COCc1cc(OC(=O)N(C)C)nc(-c2ccncc2)n1
→ . | -1.54
> CCC(CC)n1[nH]c(=O)c2c1NC(=O)CSC2c1ccc(OC)cc1 (configuration not stated)
→ 2.8 | -2.16
> c1cncc(OCC2=NCCN2)c1
→ . | -1.54
> COc1cc2c(c(OC)c1OC)-c1ccc(O)c(=O)cc1[C@@H](NC(C)=O)CC2
→ 1.56 | .
> CCOc1ccc(C2SCC(=O)Nc3c2c(C)nn3C2CCOC(C)(C)C2)cc1 (configuration not stated)
→ 0.1 | -2.49
> CCCC(C)n1[nH]c(=O)c2c1NC(=O)CSC2c1ccccc1 (configuration not stated)
→ 2.06 | -0.31
> CC(=O)O[C@H]1C[C@H](O[C@H]2[C@@H](O)C[C@H](O[C@H]3[C@@H](O)C[C@H](O[C@H]4CC[C@@]5(C)C(CCC6C5C[C@@H](O)[C@]5(C)[C@@H](C7=CC(=O)OC7)CC[C@]65O)C4)O[C@@H]3C)O[C@@H]2C)O[C@H](C)[C@H]1O[C@@H]1O[C@H](CO)[C@@H](O)[C@H](O)[C@H]1O (some centres not stated)
→ 0.32 | .
> COc1ccc(CCN)cc1OC
→ 2.21 | .
> CC(C)N(C(=O)SCC(Cl)=C(Cl)Cl)C(C)C
→ -0.06 | .
> CC(=O)OCC1=C(C(=O)O)N2C(=O)[C@@H](NC(=O)CCCC(N)C(=O)O)C2SC1 (some centres not stated)
→ -0.13 | .
> CCN1CCN(c2ccc(Cl)nn2)CC1
→ -0.31 | -1.36
> CCCC12CN3CC(CCC)(CN(C1)C3C)C2=O (configuration not stated)
→ -0.02 | -0.79
> COc1cc([C@@H]2c3cc4c(cc3[C@@H](O)[C@H]3COC(=O)[C@H]23)OCO4)cc(OC)c1O
→ 2.28 | .
> OC(Cc1ccncc1)C(Cl)(Cl)Cl (configuration not stated)
→ . | -0.87
> N#Cc1cc2c(=O)n3ccccc3nc2n(Cc2ccco2)c1=O
→ 2.56 | -0.63
> CCc1cccc(C)c1-n1nnnc1C1(N2CCOCC2)CCCCC1
→ 0.74 | .
> CCOC(=O)/C=C(\C)OP(=O)(OC)OC
→ -0.08 | .
> c1ccc2c(c1)cc1ccc3cccc4ccc2c1c34
→ -3.64 | .
> CCN1C[C@]2(OC(=O)c3ccccc3NC(C)=O)CCC(OC)[C@@]34C5C[C@@H]6C(OC)C[C@](O)([C@@H](CC23)[C@@H]14)C5(O)[C@H]6OC (some centres not stated)
→ 0.31 | .
> Cc1ccccc1C1SCC(=O)Nc2n[nH]c(C)c21 (configuration not stated)
→ 1.25 | 1.36
> COC(=O)Nc1nc2ccccc2[nH]1
→ 1.27 | -1.2
> CN(C)NC(=O)CCC(=O)O
→ . | -0.52
> Cc1nn(C(C)(C)C)c(C)c1/C=N/OC(=O)Nc1cccc(C(F)(F)F)c1
→ . | -0.23

(more compounds)
Below each compound: HIV TAR-Tat | CDC25B-CDK2 inh
> Clc1ccccc1-c1cccc2c1CCNC2
→ 1.14 | -1.39
> CCCOc1ccc(C2SCC(=O)Nc3c2c(C)nn3-c2nc(C)cc(C)n2)cc1 (configuration not stated)
→ -0.13 | -2.05
> CSc1ccc(C(c2c(O)c3ccccc3oc2=O)c2c(C)n(C)n(-c3ccccc3)c2=O)cc1 (configuration not stated)
→ . | -0.55
> CC1Cc2cc(S(=O)(=O)N3CC4CC(C3)c3cccc(=O)n3C4)ccc2N1C(=O)C1CC1 (configuration not stated)
→ 2.24 | .
> CCOC(=O)c1sc2nc3c(cc2c1N)CN(CC)CC3
→ -1.01 | 2.98
> Clc1ccc(CN2CCNCC2)cc1
→ -1.21 | 0.3
> Cn1c(N2CCNCC2)cc(=O)n(C)c1=O
→ 1.68 | -2.95
> CCOC(=O)C1=C(N)Oc2c(c(=O)oc3ccccc23)C12C(=O)N(CC(=O)OC)c1ccccc12 (configuration not stated)
→ . | 0.35
> OC12CC(C3COC1O3)n1nc(C(F)(F)F)nc1N2 (configuration not stated)
→ . | -0.84
> CNC(=O)N(C)c1nnc(C(C)(C)C)s1
→ -2.33 | .
> CC(C)c1cc2c(c(O)c1O)[C@@]1(C(=O)O)CCCC(C)(C)[C@@H]1CC2
→ -1.92 | .
> O=C1CSC(c2ccc(F)cc2)c2c(n(C3CCCCC3)[nH]c2=O)N1 (configuration not stated)
→ 2.66 | -0.55
> C[C@@H]1C[C@@H]2[C@H]([C@@H]3C=C(COC(=O)c4ccccc4)[C@@H](O)[C@]4(O)[C@@H](O)C(OC(=O)c5ccccc5)=C[C@@]14C3=O)C2(C)C
→ -1.14 | .
> NCC(CC(=O)O)c1ccc(Cl)s1 (configuration not stated)
→ 1.08 | .
> O=C1CN=C(c2ccccc2)c2cc(Cl)ccc2N1Cc1cc(=O)n2ccccc2n1
→ . | -1.34
> O=C(NCc1ccco1)N1Cc2ccccc2-n2cccc2C1c1ccc(Cl)cc1 (configuration not stated)
→ -0.84 | .
> COc1cc(C2SCC(=O)Nc3c2c(C)nn3-c2nc(C)cc(C)n2)ccc1O (configuration not stated)
→ 0.2 | -1.26
> CC1c2cccn2-c2ccccc2CN1C(=O)Nc1ccc(Br)cc1 (configuration not stated)
→ -0.61 | .
> Clc1ccc(C(OCCN2CCCCC2)c2ccccc2)cc1 (configuration not stated)
→ 0.04 | .
> CC(C)NCCc1c[nH]c2ccccc12
→ 2.63 | -0.22
> CCN1CCN(c2ncnc3nc[nH]c23)CC1
→ 1.34 | -0.72
> Cc1cc(C)nc(-n2nc(C)c3c2NC(=O)CSC3c2cccc(Br)c2)n1 (configuration not stated)
→ 0.07 | -0.97
> CN1CCN(c2ncnc3c2cnn3C)CC1
→ 1.35 | .
> COc1ccc2c(CCN)c[nH]c2c1
→ -1.08 | -0.32
> C=CC1CN2CCC1CC2C(OC(C)=O)c1ccnc2ccc(OC)cc12 (configuration not stated)
→ . | -1.04
> CCCCCn1cc(C(=O)c2cccc3ccccc23)c2ccc(OC)cc21
→ 1.18 | .
> Cc1nn(-c2cccc(Cl)c2)c2c1C(c1cccs1)SCC(=O)N2 (configuration not stated)
→ 0.39 | -2.78
> CC1=C2C(=O)[C@H]3[C@@H](CC=C4C[C@@H](O)CC[C@@]43C)[C@@H]2CC[C@]12O[C@@H]1C[C@H](C)CN[C@H]1[C@H]2C
→ 0.43 | .
> C[C@@H]1CC(Cl)CC[C@H]1C(=O)OC(C)(C)C (some centres not stated)
→ 2.38 | .
> CN(C)CC(=O)c1ccc2cc[nH]c2c1
→ -1.35 | -1.43
> Cn1c(O)c(C=Nc2cccc(C(F)(F)F)c2)c(=O)n(C)c1=O
→ . | -1.4
> CN1C(=O)CN=C(c2ccccc2)c2cc(Cl)ccc21
→ -0.14 | .
> O=S(=O)(NC1CCCCC1N1CC=C(c2ccccc2)CC1)c1ccccc1 (configuration not stated)
→ 1.51 | 0.42
> Cc1ccc(C2SCC(=O)Nc3n[nH]c(C)c32)cc1 (configuration not stated)
→ 0.4 | -2.16
> N#CC(C#N)=NNc1ccc(C(F)(F)F)cc1
→ . | -2.74
> CN1CC=C(c2noc(CCC(=O)N3CCN(c4ccccc4)CC3)n2)CC1
→ 1.43 | -0.44
> O=C(Nc1ccc(F)cc1)N1Cc2ccccc2-n2cccc2C1c1cccs1 (configuration not stated)
→ -1.04 | .
> Oc1c(Cl)c(Cl)c(Cl)c(Cl)c1Cl
→ 0.47 | .
> CC(C)CCn1c(CC(C)(C)C)nc2ccccc21
→ 1.15 | 1.88
> COc1ccc2[nH]cc(C3=CCNCC3)c2c1
→ -7.79 | .
> Nc1cc2c(ncn2CCOCP(=O)(O)O)c(=O)[nH]1
→ . | -0.93
> COc1cc(C=C(C#N)C#N)cc(OC)c1OC
→ . | -2.99
> CC1(C)CC(n2[nH]c(=O)c3c2NC(=O)CSC3c2ccc3c(c2)OCO3)CCO1 (configuration not stated)
→ 1.7 | -0.87
> C=CCOc1ccc(C2SCC(=O)Nc3c2c(=O)[nH]n3C(C)C)cc1 (configuration not stated)
→ . | 0.45
> COc1ccc2c(c1)c(C(=O)O)c(C)n2C
→ 1.53 | -0.92
> O=C1CC(Cc2ccccc2)C(=O)N1c1ccc2c(C(F)(F)F)cc(=O)oc2c1 (configuration not stated)
→ . | -0.22
> CN1C2C[C@H](OC(=O)[C@H](CO)c3ccccc3)C[C@H]1[C@@H](O)C2
→ 0.88 | .
> CN(C)c1ccc(C(=O)c2ccc(N(C)C)cc2)cc1
→ 2.47 | .
> CCC1c2cccn2-c2ccccc2CN1C(=O)Nc1ccc(F)c(Cl)c1 (configuration not stated)
→ 1.12 | .
> C=C[C@]12CN(C)C3C4COC(CC41)[C@]1(C(=O)Nc4ccccc41)[C@@H]32 (some centres not stated)
→ 0.98 | .
> C[C@]12CCC3C(CC[C@H]4C[C@@H](O)CC[C@]34C)C1CCC2=O (some centres not stated)
→ -0.6 | .
> Cc1[nH]nc2c1C(c1ccc(F)cc1F)SCC(=O)N2 (configuration not stated)
→ 3.12 | -0.54
> C=CCN1CCC23c4c5ccc(O)c4O[C@H]2C(=O)CC[C@@]3(O)C1C5 (some centres not stated)
→ . | -0.77

Assay outcomes as filed in PubChem.

Some of the compounds tested (hit frequency here may not be typical).
